Screening results: PubChem BioAssay, several laboratories
HSV replic up – HSV replication enhancement. HSV replication augmentation in cells, fold increase. maximum fold increase. 0.005% of 220,000 active;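 active means peak rise of 1.5-fold or more in the series; inconclusive means self-fluorescent or not available for retest; tested in PC3 cells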;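 further: first round at 10 µM; read as green reporter fluorescence; hits show the peak of a series up to 25 µM; 1 = signal of infected wells without compound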
PKD1 inh – blocks activity of human protein kinase D1 | inhibition, %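 (about 10 µM by stock and volumes)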 | Q15139 | 0.056% of 200,000 active | PKD1 kinase fluorescence polarization assay;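 active means inhibition of 50% or more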;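 further: controls were vehicle for no effect and a reference inhibitor for full effect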
Insulin prom inh – TRM-6 insulin promoter activity inhibition. TRM-6 cells (human fetal islet line), insulin promoter-eGFP reporter, imaging; reporter expression induced with tamoxifen. inhibition, % at 2 µM. 0.9% of 130,000 active. AID 1273;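 active means inhibition above the mean plus 3 SD, with well images judged a real hit on visual review, cut at about 60% in these data, passing the limit was not always enough; inconclusive means inhibition over the cutoff but images rejected on review; inactive means inhibition not above the cutoff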
GALR2 ag – GALR2 (human) receptor agonism | AID 803 | O43603 | GALR2-expressing cells, agonist activation read-out | activation, %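 (tested at 5 µM)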 | 0.48% of 140,000 active;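 active means above mean plus 3 SD of all compounds, about 5% in these data, not always enough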;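 further: 0% = vehicle buffer wells and 100% = reference agonist at full effect; tested in CHO reporter cells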
Target sequence (O43603 whole entry, looked up): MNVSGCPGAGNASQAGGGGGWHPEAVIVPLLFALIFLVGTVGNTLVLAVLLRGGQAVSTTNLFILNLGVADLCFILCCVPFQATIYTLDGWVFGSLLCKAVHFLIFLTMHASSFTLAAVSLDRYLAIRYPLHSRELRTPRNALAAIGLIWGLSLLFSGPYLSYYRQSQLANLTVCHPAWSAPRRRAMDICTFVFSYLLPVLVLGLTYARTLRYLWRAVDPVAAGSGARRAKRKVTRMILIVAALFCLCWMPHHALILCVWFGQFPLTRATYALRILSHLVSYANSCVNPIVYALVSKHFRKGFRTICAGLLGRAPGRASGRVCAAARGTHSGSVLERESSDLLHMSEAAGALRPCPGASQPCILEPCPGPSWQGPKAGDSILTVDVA
RGS16-Gao HTS – regulators of human RGS16-Galphao interaction; 0.38% of 220,000 active; O15492+P09471; AID 1441; bead-based flow cytometry RGS16-Galphao binding, fluorescence; actives lie on both sides; binding response (% of control), % at 10 µM;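 active means below 25% or above 175%, edge rows of some plates excepted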;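 further: Galphao activated by GDP with aluminum fluoride before binding; 100% = wells without compound and 0% = beads without RGS; some results beyond the cut were filed as inactive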
Target sequence (O15492 whole entry, looked up): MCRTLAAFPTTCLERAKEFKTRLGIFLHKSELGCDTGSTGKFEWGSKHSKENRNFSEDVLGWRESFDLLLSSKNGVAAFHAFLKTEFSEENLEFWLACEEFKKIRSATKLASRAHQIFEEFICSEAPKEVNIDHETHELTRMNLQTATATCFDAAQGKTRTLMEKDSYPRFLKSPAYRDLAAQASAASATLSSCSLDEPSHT
Target sequence (P09471 whole entry, looked up): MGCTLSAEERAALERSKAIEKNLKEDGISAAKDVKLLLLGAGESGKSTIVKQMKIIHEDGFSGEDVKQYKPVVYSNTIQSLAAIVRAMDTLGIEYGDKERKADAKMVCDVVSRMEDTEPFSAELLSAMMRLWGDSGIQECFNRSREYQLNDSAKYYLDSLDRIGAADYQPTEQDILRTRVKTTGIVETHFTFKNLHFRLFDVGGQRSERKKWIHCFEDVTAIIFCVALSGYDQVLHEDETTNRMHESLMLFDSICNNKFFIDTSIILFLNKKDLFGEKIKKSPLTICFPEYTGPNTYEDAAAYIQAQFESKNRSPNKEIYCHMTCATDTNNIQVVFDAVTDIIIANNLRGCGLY
Insulin prom inh cell count – second read-out of Insulin prom inh, no call of its own (marks repeat the call); normalized cell count, %; measured here: cell count, toxicity; reference of the scale not given here;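 cells exposed to compound for 48 h; stained nuclei by imaging scaled within each plate; lower means fewer cells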
HSV replic up primary fold – second read-out of HSV replic up, no call of its own (marks repeat the call); fold increase; compound at 10 µM; measured here: primary screen fold increase 10 uM; tested in PC3 cells;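 GFP signal in the first replicate; 1 = infected wells without compound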
An asterisk follows results filed as active; i = inactive; u = inconclusive; x = not tested or not shown.

Screens in order: HSV replic up | HSV replic up primary fold | PKD1 inh | Insulin prom inh | Insulin prom inh cell count | GALR2 ag | RGS16-Gao HTS
Cc1cccc2cc(COC(=O)c3cccnc3)c(=O)[nH]c12
  i | 0.96 | 0.7 | 25.0 | 101.0 | -1.6 | 99.3
Cc1cccc2cc(C(c3nnnn3CC3CCCO3)N3CCCc4ccccc43)c(=O)[nH]c12 (configuration not stated)
  i | 0.8 | -6.3 | x | x | 1.5 | 100.7
CCN1CCN(CCCNC(=O)C(NC(=O)C2CCC(C)CC2)C(C)C)CC1 (configuration not stated)
  i | 1.15 | -6.4 | 0.0 | 22.8 | -2.6 | 107.4
COc1ccc(CNC(=O)/C=C/c2cc3c(cc2Br)OCO3)cc1
  i | 0.94 | -11.8 | -47.8 | 94.2 | -1.6 | 101.8
COCCN(C(=O)CCC(=O)Nc1cccnc1)C(C(=O)NC1CCCCC1)c1ccccc1 (configuration not stated)
  i | 0.89 | -8.2 | -11.1 | 58.4 | -0.5 | 97.9
COc1ccc(CCN(Cc2cccs2)S(=O)(=O)c2ccc(S(=O)(=O)N3CCCCCC3)cc2)cc1OC
  i | 1 | -3.6 | x | x | -1.4 | 102.0
COC(=O)c1ccc(NC(=O)C2CCCN2S(=O)(=O)c2ccc(F)cc2)cc1 (configuration not stated)
  i | 0.987 | -14.6 | -26.3 | 105.7 | 0.1 | 134.8
Cc1cccc(OCCCC(=O)O)c1
  i | 1.12 | -12.5 | 28.6 | 50.0 | -2.0 | 94.8
CCS(=O)(=O)N1CCC(C(=O)NCCc2ccc(C)cc2)CC1
  i | 0.9 | 1.2 | 10.5 | 65.3 | -1.1 | 102.1
CN1CCN(/C(=N\O)c2nonc2N)CC1
  i | 1.05 | -19.6 | x | x | -1.1 | 107.6
CCN(CC)S(=O)(=O)c1cc(NS(=O)(=O)c2ccc(Cl)c(C(=O)O)c2)ccc1C
  i | 1.17 | x | x | x | x | 99.7
CCOC(=O)c1sc2nc(CC(=O)OC)nc(NCc3ccco3)c2c1C
  u | x | 3.4 | 13.9 | 203.0 | -0.5 | 65.1
COC(=O)c1c(-c2ccccc2)csc1NC(=O)C1CC=CCC1C(=O)O (configuration not stated)
  i | 1.09 | -2.1 | x | x | x | 105.8
O=C1CCCC(c2ccccc2)N1 (configuration not stated)
  i | 1.06 | -9.2 | 3.5 | 109.2 | -2.2 | 79.8
CCOC(=O)C1CCCN(CC(=O)Nc2cc(C)cc(C)c2)C1 (configuration not stated)
  i | 1.02 | 1.6 | x | x | x | 105.5

New compounds follow.
Screens in order: HSV replic up | HSV replic up primary fold | PKD1 inh | Insulin prom inh | Insulin prom inh cell count | GALR2 ag | RGS16-Gao HTS
CCn1cc(S(=O)(=O)CC(=O)Nc2ccc3c(c2)OCO3)c2ccccc21
  i | 0.94 | x | x | x | x | 98.2
COC(=O)C1=C(C)NC2=C(C(=O)c3ccccc32)C1c1ccc(-c2ccc(C(=O)O)cc2)o1 (configuration not stated)
  i | 1.1 | 13.4 | 37.1 | 132.3 | 0.0 | 110.1
CCCN(CCC)CCNC(=O)C1CCCN(S(=O)(=O)c2ccc3c(c2)oc(=O)n3C)C1 (configuration not stated)
  i | 0.76 | -11.4 | 0.0 | 182.1 | -1.2 | 102.9
CCN(CC)S(=O)(=O)c1ccc2[nH]c(=O)cc(C(=O)Nc3cccc(C(C)=O)c3)c2c1
  i | 0.85 | -4.2 | x | x | x | 99.9
CCNC(=O)CC1SC(=Nc2ccc(C)cc2)N(CC)C1=O (configuration not stated)
  i | 1.04 | 3.5 | -11.4 | 73.1 | -0.9 | 99.5
CCc1c(O)cc2n(c1=O)-c1ccc(Cl)cc1C2(C)C
  i | 0.91 | 1.0 | 14.3 | 97.7 | -0.6 | 101.1
O=C(c1ccccc1Cl)N1CCC(n2cccc2)CC1
  i | 1.21 | x | x | x | x | 104.8
O=C(NCc1ccncc1)c1cccc(Cn2cc(Br)cn2)c1
  i | 0.68 | -12.3 | x | x | -1.3 | 95.4
CCOC(=O)N1CC=C2C(C#N)=C(N)C(C#N)(C#N)[C@H](c3cccs3)C2C1 (some centres not stated)
  i | 1.1 | 0.4 | 21.1 | 93.8 | 0.9 | 111.0
Cc1ccc(NC(=O)COC(=O)CCc2ccc(S(=O)(=O)N3CCOCC3)cc2)c(C)c1
  i | 0.9 | -5.3 | -55.6 | 109.0 | x | 103.9
CCOc1ccc(S(=O)(=O)NCCCN2CCOCC2)cc1
  i | 0.92 | -2.7 | -6.2 | 115.8 | -0.7 | 99.0
CCn1c(SCC(=O)Nc2ccc(C)cc2)nc2nc3c(cc2c1=O)CCCC3
  i | 0.96 | -1.0 | x | x | 1.7 | 93.7
COc1ccc(C(=O)COC(=O)CSCc2c(C)noc2C)cc1OC
  i | 1.02 | -0.4 | -14.3 | 96.4 | -0.7 | 102.9
CCn1c(CNC(=O)c2ccccc2F)nnc1SCC(=O)NC1CCCCC1C (configuration not stated)
  i | 1.06 | -4.1 | -10.5 | 89.8 | x | 101.8
Cc1c(Cl)cccc1Nc1ncccc1C(=O)OCC(O)CO (configuration not stated)
  i | 0.92 | x | x | x | x | 101.0

Following part
Screens in order: HSV replic up | HSV replic up primary fold | PKD1 inh | Insulin prom inh | Insulin prom inh cell count | GALR2 ag | RGS16-Gao HTS
CCOC(=O)c1ccc(NC(=O)CN2C(=O)C3C4C=CC(C4)C3C2=O)cc1 (configuration not stated)
  i | 1.1 | 2.2 | -37.0 | 102.3 | -0.9 | 113.7
COc1ccc(N2CCN(C(=O)Cc3ccc(S(=O)(=O)N4CCOCC4)s3)CC2)cc1
  u | x | -0.6 | -45.5 | 38.8 | x | 103.6
C=CCN(CC=C)c1nc2ccccc2nc1C(C#N)C(=O)OC(C)C (configuration not stated)
  i | 1.14 | 4.1 | -46.9 | 102.7 | -1.4 | 99.0
CCCCN=C(NNc1ccc(Br)cc1)C(=O)OCC
  i | 1.28 | 5.5 | x | x | -0.9 | 101.1
OCCC1CN(Cc2ccccc2OC2CCCC2)CCN1Cc1ccsc1 (configuration not stated)
  i | 0.83 | 3.9 | x | x | x | 103.6
O=C(c1ccc(N2CCCC2=O)cc1)N1CCN(c2ccccc2)CC1
  i | 0.973 | -6.3 | 35.7 | 87.3 | -0.9 | 106.4
Cc1cccc(OCc2n[nH]c(=S)o2)c1
  i | 0.77 | -8.1 | x | x | -2.1 | 94.0
Fc1ccc(CSc2nnc(-c3cccs3)o2)cc1
  i | 0.99 | -3.6 | 35.7 | 64.2 | -2.0 | 106.6
COC(=O)Cn1ncc(N2C3CC(CC(C)(C)C3)C2C)c(Cl)c1=O (configuration not stated)
  i | 1.04 | -21.1 | -2.7 | 147.5 | -1.2 | 112.9
CCOc1[nH]n(-c2ccc(Cl)cc2)c(=O)c1C=Nc1ccc(OC)cc1
  u | x | 15.1 | 3.9 | 95.9 | -1.6 | 99.6
Cc1ccnc2nc(C(=O)OCC(=O)Nc3ccccc3C(C)(C)C)nn12
  i | 0.88 | -2.9 | 42.9 | 128.9 | x | 101.1
CCCCn1c(=O)[nH]c(=O)c2c1nc(COC(=O)c1c(C)noc1C)n2CCC
  i | 1.16 | 4.2 | 0.0 | 64.9 | 0.4 | 101.5
Cc1cc(C)n(C(=O)c2ccccc2[N+](=O)[O-])n1
  i | 1.08 | 5.6 | x | x | 0.2 | 98.8
Cc1ccc2c(c1)C(c1ccncc1)=NNC(c1ccccc1)=N2
  i | 1.07 | -3.6 | 33.3 | 84.2 | x | 108.5
Cn1c(SCC(=O)N/N=C/C=C/c2ccccc2[N+](=O)[O-])nc2ccccc21
  i | 1.15 | -10.9 | x | x | -0.3 | 97.3

At a glance, 12 of the compounds above:
Screens in order: HSV replic up | HSV replic up primary fold | PKD1 inh | Insulin prom inh | Insulin prom inh cell count | GALR2 ag | RGS16-Gao HTS
CCCCN=C(NNc1ccc(Br)cc1)C(=O)OCC
  i | 1.28 | 5.5 | x | x | -0.9 | 101.1
OCCC1CN(Cc2ccccc2OC2CCCC2)CCN1Cc1ccsc1 (configuration not stated)
  i | 0.83 | 3.9 | x | x | x | 103.6
O=C(c1ccc(N2CCCC2=O)cc1)N1CCN(c2ccccc2)CC1
  i | 0.973 | -6.3 | 35.7 | 87.3 | -0.9 | 106.4
Cc1cccc(OCc2n[nH]c(=S)o2)c1
  i | 0.77 | -8.1 | x | x | -2.1 | 94.0
Fc1ccc(CSc2nnc(-c3cccs3)o2)cc1
  i | 0.99 | -3.6 | 35.7 | 64.2 | -2.0 | 106.6
COC(=O)Cn1ncc(N2C3CC(CC(C)(C)C3)C2C)c(Cl)c1=O (configuration not stated)
  i | 1.04 | -21.1 | -2.7 | 147.5 | -1.2 | 112.9
CCOc1[nH]n(-c2ccc(Cl)cc2)c(=O)c1C=Nc1ccc(OC)cc1
  u | x | 15.1 | 3.9 | 95.9 | -1.6 | 99.6
Cc1ccnc2nc(C(=O)OCC(=O)Nc3ccccc3C(C)(C)C)nn12
  i | 0.88 | -2.9 | 42.9 | 128.9 | x | 101.1
CCCCn1c(=O)[nH]c(=O)c2c1nc(COC(=O)c1c(C)noc1C)n2CCC
  i | 1.16 | 4.2 | 0.0 | 64.9 | 0.4 | 101.5
Cc1cc(C)n(C(=O)c2ccccc2[N+](=O)[O-])n1
  i | 1.08 | 5.6 | x | x | 0.2 | 98.8
Cc1ccc2c(c1)C(c1ccncc1)=NNC(c1ccccc1)=N2
  i | 1.07 | -3.6 | 33.3 | 84.2 | x | 108.5
Cn1c(SCC(=O)N/N=C/C=C/c2ccccc2[N+](=O)[O-])nc2ccccc21
  i | 1.15 | -10.9 | x | x | -0.3 | 97.3

(further entries)
Screens in order: HSV replic up | HSV replic up primary fold | PKD1 inh | Insulin prom inh | Insulin prom inh cell count | GALR2 ag | RGS16-Gao HTS
NNC(=S)NC1CCCCC1
  i | 0.94 | 8.2 | 57.9 | 140.9 | x | 98.3
CC(C)CNC(=O)c1cccc(NC(=O)COc2ccc([N+](=O)[O-])cc2)c1
  i | 0.98 | -5.0 | x | x | x | 101.9
CCC(=O)Nc1nonc1-c1nc2ccccc2n1N(C(=O)CC)C(=O)CC
  i | 1.01 | 3.3 | -56.2 | 152.2 | -2.7 | 54.1
CCC(C)(C)NC(=O)C(c1ccc(OC)cc1)N(Cc1cccs1)C(=O)CCC(=O)Nc1cc(C)on1 (configuration not stated)
  i | 1 | -5.5 | i | 48.6 | -1.7 | 43.5
Cc1cc(C)c(C#N)c(SCc2cn3ccccc3n2)n1
  i | 0.87 | 1.0 | -44.0 | 87.9 | -1.1 | 74.3
CCOC(=O)c1cc2c(=O)n3ccccc3nc2n(CC2CCCO2)c1=NC(=O)/C=C/c1ccccc1 (configuration not stated)
  i | 0.92 | -3.7 | x | x | x | 99.6
O=C(NCCN1CCCC1)C1(S(=O)(=O)c2ccc(Cl)cc2)CC1
  i | 0.99 | -19.4 | -31.2 | 123.4 | -4.1 | 91.8
O=C(c1ccc(F)cc1)N1CCN(Cc2ccccc2Br)CC1
  i | 0.92 | -12.0 | 42.9 | 161.3 | -1.9 | 108.5
COC(=O)c1ccc2c(c1)NC(=O)C(N1CCCC1)S2 (configuration not stated)
  i | 0.91 | -8.2 | x | x | 1.2 | 95.5
O=C(O)c1cccc(NS(=O)(=O)c2ccc3c(c2)OCCCO3)c1
  i | 0.99 | -5.0 | x | x | x | 100.5
Cc1nn(-c2ccccc2)c(Cl)c1/C=N/Nc1nc2ccccc2n1C
  i | 0.79 | -5.6 | 77.8* | 128.1* | -2.9 | 98.1
Nc1nnc(SCc2nnc(-c3ccccc3)o2)s1
  i | 0.96 | 0.9 | x | x | x | 74.4
COc1cccc(NC(=O)CN(C)CC(=O)Nc2ccc(Cl)cc2[N+](=O)[O-])c1
  i | 0.98 | 9.8 | -27.3 | 97.4 | x | 27.1
O=C(CN1CCN(c2ccccc2F)CC1)c1c[nH]c2ccccc12
  x | x | -3.9 | 16.3 | 138.5 | -0.4 | 89.3
Cc1ccc(C(=O)Nc2ccccc2Sc2ccccc2)cc1
  x | x | -12.7 | x | x | -0.2 | 99.7
N/C(Cc1ccc([N+](=O)[O-])cc1)=N\OC(=O)c1ccc(Br)cc1
  i | 0.87 | 3.8 | 24.2 | 147.4 | 0.0 | 99.8
Cc1nc2c(Br)c(C)nn2c2c1CCC2
  i | 0.93 | 1.6 | 50.0 | 162.5 | x | 105.7
